High-throughput results as filed in PubChem.
FGF22 binding – shifts melting point of recombinant human FGF22; Q9HCT0; recombinant FGF22 thermal shift, SYPRO orange fluorescence; percent of sucrose octasulfate shift, DMSO zero; calls only at 9.99 µM; actives 1.5% (n = 340,000);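 active = melting point raised past a set limit in the mean and every replicate; inconclusive = no clear call; three in four hits are not shown here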
Target sequence (Q9HCT0 whole entry, looked up): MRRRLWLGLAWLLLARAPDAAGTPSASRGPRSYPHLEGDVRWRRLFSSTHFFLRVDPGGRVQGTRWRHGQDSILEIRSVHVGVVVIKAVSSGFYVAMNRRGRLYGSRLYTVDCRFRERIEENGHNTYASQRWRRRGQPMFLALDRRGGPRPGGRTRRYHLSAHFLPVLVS
rRNA inh HTS – selective bacterial rRNA inhibition in E. coli. E. coli WT GFP vs humanized-ribosome RFP mutants, fluorescence, 24 h; stronger effect = lower value; DMSO median 0, no signal -100. GFP signal change (wild-type ribosome), % (test concentration not listed). actives 1.6% (n = 350,000). AID 720706;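 active = significant combined selectivity score with lowered wild-type GFP, culture density cut under 30%, mutant RFP and density less affected; inactive = any of these conditions unmet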; also: one replicate is shown; some compounds called inactive have numbers as strong as hits
MLL AF4-AF9 inh – blocks AF4 peptide binding to human AF9. P42568. AlphaScreen, biotin-AF4 peptide binding to FLAG-AF9. inhibition, % at 10 µM. actives 0.47% (n = 350,000);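 active = every replicate reaching a set inhibition limit, whatever the replicate mean, cut at about 25% in these data; inconclusive = mean inhibition reaches that limit but some replicates miss it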;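 also: 0% = plate neutral control median and 100% = total signal loss; the record names both 10 and 1 µM as test concentration; the first replicate is given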
Target sequence (P42568 whole entry, looked up): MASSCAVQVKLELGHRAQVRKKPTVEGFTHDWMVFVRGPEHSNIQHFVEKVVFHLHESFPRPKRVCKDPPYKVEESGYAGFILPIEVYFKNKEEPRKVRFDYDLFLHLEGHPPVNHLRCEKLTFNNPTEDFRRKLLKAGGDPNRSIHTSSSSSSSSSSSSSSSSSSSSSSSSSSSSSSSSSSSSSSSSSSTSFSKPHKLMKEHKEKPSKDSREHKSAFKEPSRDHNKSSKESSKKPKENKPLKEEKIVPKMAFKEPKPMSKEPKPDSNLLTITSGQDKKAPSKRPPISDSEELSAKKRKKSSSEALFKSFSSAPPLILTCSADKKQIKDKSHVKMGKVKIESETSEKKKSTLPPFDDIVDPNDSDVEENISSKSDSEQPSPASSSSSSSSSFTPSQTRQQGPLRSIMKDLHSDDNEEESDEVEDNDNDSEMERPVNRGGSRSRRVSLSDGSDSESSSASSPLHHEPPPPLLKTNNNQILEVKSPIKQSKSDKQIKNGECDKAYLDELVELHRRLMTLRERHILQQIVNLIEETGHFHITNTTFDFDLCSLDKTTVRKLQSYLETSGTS
Beta cell apopt – beta cell apoptosis inhibition; AID 435005; protection from apoptosis, % (test concentration not listed); INS-1E cytokine-induced death, ATP luminescence, 48 h; percent of positive-control rescue, neutral wells zero; actives 0.8% (n = 300,000);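 active = all replicates at 75% or more, or half of them and the mean; inconclusive = half reach 75% but not the mean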;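 also: 0% = cytokine-treated negative control wells and 100% = positive control rescue; higher means more ATP so stronger rescue from cytokine killing; wells of about 40 µL received 100 nL stock; the first replicate is given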
RanGTP-Imp inh – disruptors of Ran-importin-beta complex formation – biochemical, FRET, CFP-Ran, YFP-importin-beta, homogeneous, primary screen; actives 1.1% (n = 300,000); cell-free CFP-Ran/YFP-importin-beta FRET ratio; inhibition, % (test concentration not listed);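 active = most replicates above 15%; inconclusive = exactly half above 15%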;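 also: 0% = DMSO wells and 100% = Ran loaded with GDP instead of GTP; wells of about 40 µL received 100 nL stock; the first replicate is given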
Calb FLC – affects C. albicans growth with fluconazole. growth inhibition, % (no concentration beside the values). AID 1979. actives 0.57% (n = 300,000). C. albicans CaCi-2 (fluconazole-resistant clinical isolate) + fluconazole, Alamar Blue growth, 48 h;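 active = most replicates above 75%; inconclusive = exactly half above 75%; inactive = most below 75%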;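 also: all wells also contain fluconazole at 8 µg/ml as a sub-toxic cotreatment; 0% = median of DMSO wells and 100% = median of geldanamycin control wells; wells of about 8 µL received 7.5 nL stock; the first replicate is given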
ALR inh – human ALR oxidase inhibition via reduced H2O2. inhibition, % (test concentration not listed). actives 3.8% (n = 290,000). AID 485317. purified ALR, DTT oxidation, H2O2 HRP-luminol luminescence. P55789;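 active = mean and each replicate at 75% or more; inconclusive = only one of the two met; inactive = neither met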;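 also: stock transfer was 7.5 nL into about 7.5 µL; 0% = neutral wells and 100% = wells with inactivated enzyme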
Target sequence (P55789 whole entry, looked up): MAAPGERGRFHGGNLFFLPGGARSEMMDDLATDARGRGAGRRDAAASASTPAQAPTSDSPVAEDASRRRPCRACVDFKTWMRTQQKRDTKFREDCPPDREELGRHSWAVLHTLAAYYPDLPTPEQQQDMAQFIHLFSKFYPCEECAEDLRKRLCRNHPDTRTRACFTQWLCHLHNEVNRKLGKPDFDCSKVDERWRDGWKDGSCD
T cruzi repl – blocks replication of Trypanosoma cruzi; T. cruzi beta-gal in NIH3T3, luminescence, 90 h; inhibition, % (no concentration beside the values); actives 1.4% (n = 300,000);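 active = mean inhibition across valid replicates above about 55%, limit read from the data; inconclusive = mean below that limit but half or more replicates reach it; inactive = mean below it, under half of replicates reach it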;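 also: signal also drops with host cell toxicity which is not excluded here; 0% = plate median of DMSO wells and 100% = zero luminescence signal; higher percent means less beta-gal luminescence so fewer parasites; stock transfer was 50 nL into about 50 µL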
rRNA inh HTS OD600 – second read-out of rRNA inh HTS, no call of its own (marks repeat the call); OD600 change, %; measured here: OD600 growth;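 optical density of the mix in the first replicate; 0 = DMSO median and -100 = no signal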
rRNA inh HTS RFP – recorded beside rRNA inh HTS, whose call it bears; RFP signal change, %; measured here: RFP humanized mutant strains;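 first replicate; 0 = DMSO median and -100 = no signal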
Starred values were filed as active, the others as inactive; i = inactive; u = inconclusive; x = not tested or not shown. These rows are one share of the data; count on the stated rates, not on these rows.

The line under a structure holds: FGF22 binding	rRNA inh HTS	rRNA inh HTS OD600	rRNA inh HTS RFP	MLL AF4-AF9 inh	Beta cell apopt	RanGTP-Imp inh	Calb FLC	ALR inh	T cruzi repl
CCN1CCN(c2ccc(S(=O)(=O)N3CCCCC3)cc2NC(=O)c2ccc([N+](=O)[O-])o2)CC1
→ i	-1	-2	-5.6	4.9	102*	u	-1	-84	60*
C=CCn1c(C)cc(C(=O)CSc2nnc(Cc3ccccc3)o2)c1C
→ x	x	x	x	x	-2	u	14	x	6
COCCCNC(=S)N(CCO)Cc1cc2cc3c(cc2[nH]c1=O)OCO3
→ i	2	13	3.5	2.3	-6	-8.9	1	-10	-3
CCc1ccc(NC(=O)Cn2ncn3c(cc4ccccc43)c2=O)cc1
→ i	-21	-26	-6.7	-3.5	-4	4.5	-8	3	10
COc1ccc(CNC(=O)c2csc3c2CCCC3)cc1
→ i	-20	-12	-5.1	-0.4	-3	x	x	-13	x
COc1ccccc1NC(=O)CCCCCN1C(=O)c2cccc3cccc(c23)C1=O
→ i	x	x	x	0.5	0	7.8	6	2	14
COCCNC(=O)c1ccc(Cn2c(=S)[nH]c3cc4c(cc3c2=O)OCO4)cc1
→ x	x	x	x	x	5	3.9	10	-2	-24
COc1ccc(-c2cccc(NS(=O)(=O)c3ccc([N+](=O)[O-])cc3)c2)nn1
→ i	-6	-2	-1.8	0.6	x	2.4	34	-38	10
COc1ccc(NC(=O)CCC(=O)c2cccs2)c(OC)c1
→ x	x	x	x	x	x	-1.0	8	1	2
CCOc1ccc(S(=O)(=O)N2CCC(C(=O)OCc3cccc(OC)c3OC)CC2)cc1
→ i	-1	4	0.6	-3.0	5	x	x	-21	x
COc1ccc(NC(=O)[C@@]2(CC(=O)O)CC(/C=C/c3ccccc3)=NO2)cc1
→ i	3	16	-1.7	-1.4	1	3.0	2	-17	-7
COc1ccc(Cl)cc1NC(=O)Cn1nnc(C(=O)NCc2ccc3c(c2)OCO3)c1N
→ i	-1	1	-0.5	-0.2	x	3.0	-7	-5	23
COc1ccc(NC(=O)CC2Nc3cccc4cccc(c34)NC2=O)cc1 (stereo not drawn)
→ i	4	3	0.6	6.7	-3	2.7	34	100*	-17
CCCCC(=O)OCC(=O)c1cc(C)n(-c2c(C)n(C)n(-c3ccccc3)c2=O)c1C
→ i	21	19	0.3	-0.3	-10	-4.1	-2	-9	-4
O=c1nc2n(c3ccc(Br)cc13)CCS2
→ x	x	x	x	x	0	1.8	3	-8	-11
CCOC(=O)c1cnc(SC)nc1Oc1cccc(NS(=O)(=O)c2ccc(F)cc2)c1
→ x	x	x	x	x	17	3.8	-2	-3	43
Cc1cccc(NC(=O)C(=O)NCC2CCCN2S(=O)(=O)c2ccccc2)c1 (stereo not drawn)
→ i	-4	1	2.3	3.4	6	1.2	15	-1	12
COc1cc(/C=C(\C#N)C(=O)NCCc2ccccc2)cc(OC)c1O
→ i	-31*	-13*	9.7*	0.2	-14	0.4	-1	17	-6
CCC(=NC(C)c1ccccc1)c1c(O)n(C)c(=O)n(C)c1=O (stereo not drawn)
→ x	x	x	x	x	43	5.5	-11	1	-66
CNc1nc(N)c(C(=O)C23CC4CC(CC(C4)C2)C3)s1
→ i	-46	-60	-7.9	7.4	-2	2.0	-5	98*	11
COCCn1cnnc1SCC(=O)Nc1ccccc1C(=O)Nc1ccc2c(c1)OCO2
→ x	x	x	x	x	1	-2.2	-5	-6	-6
CS(=O)(=O)N1CCCC(C(=O)NCc2ccccn2)C1 (stereo not drawn)
→ i	12	5	-3.3	3.5	1	2.9	-12	-5	10
CC1(C)C2CCC1(CS(=O)(=O)Nc1ccccc1)C(=O)C2 (stereo not drawn)
→ i	16	-1	0.1	1.1	-4	-3.6	1	-3	-4
Cc1ccc2c(C(=O)CNc3nncs3)c(C)[nH]c2c1
→ i	-2	-1	0.8	5.1	-5	3.3	-2	x	-1
CC1=NN(c2ccccc2)C(=O)C1(C)C
→ x	x	x	x	x	-9	-3.6	9	0	-6
CCOC(=O)C(C)Sc1nnc(Cn2c(=O)sc3ccccc32)n1-c1ccccc1 (stereo not drawn)
→ i	-7	-10	-1.5	-0.2	-4	-0.1	1	-2	-11
Cc1cccc2nc(-c3cccnc3)c(NCCC(C)C)n12
→ x	13	13	2.5	12	-4	u	-26	u	21
CC(C)NS(=O)(=O)c1ccc(N2C(=O)c3ccccc3C2=O)cc1
→ i	4	9	-6.4	-12	-1	-5.8	12	-9	3
COc1ccc(Cc2cc(-c3ccc(F)cc3)n[nH]c2=O)cc1
→ i	-9	-12	0.5	1.0	-2	1.1	-2	0	-6
O=C(Nc1cccnc1Oc1ncnc2cc(Cl)ccc12)c1ccc(F)cc1
→ x	x	x	x	x	-7	-1.9	13	-12	-22
O=C(NC1CC1)[C@@H]1CSC2c3ccccc3C(=O)N21 (stereo partly drawn)
→ i	10	12	-0.3	-11	-10	-1.4	8	3	-8
CCCCCOC(=O)Nc1nnc(CCC)s1
→ x	1	3	-1.1	x	-4	-1.1	-12	-12	47
COc1ccccc1C(=O)Nc1cccc(S(=O)(=O)N2CCCC2)c1
→ i	-21	-4	12	-16	1	-1.1	-1	-14	14
O=Cc1c(C(=O)O)n(CC(=O)O)c2ccccc12
→ x	x	x	x	x	-10	0.9	u	3	-1
COCC(=O)Nc1nnc(SCC(=O)N2C(C)CCCC2C)s1 (stereo not drawn)
→ i	2	1	-2.3	0.8	0	0.0	2	-2	-10
COc1ccc(/C=C/c2c([N+](=O)[O-])c(=O)n(C)c(=O)n2C)cc1O
→ x	-1	-4	-0.7	x	-10	7.5	-4	37	-18
Cc1ccccc1C(=O)Nc1nc(SCc2ccc(Cl)cc2)n[nH]1
→ i	13	17	-1.2	-1.7	x	1.3	-30	-1	-16
CCN(C(=O)CSc1cc(-c2ccccc2)c2ccc(OC)cc2n1)C1CCS(=O)(=O)C1 (stereo not drawn)
→ i	x	x	x	6.4	5	2.9	-14	20	20
COc1ccccc1N(CC(=O)NCCc1ccccc1)C(=O)CCC(=O)Nc1ccccn1
→ i	-5	-7	1.5	-2.7	1	5.5	-7	-4	18
CC1CN/C(=C\C(=O)c2ccccc2)C(=O)N1 (stereo not drawn)
→ x	x	x	x	x	-4	3.6	u	-5	-18
O=C(CN1CCN(Cc2ccccc2)CC1)Nc1ccc2c(c1)CCC2
→ i	1	2	3.8	0.6	-3	3.6	-8	-6	6
O=C1NCCCC1C(=O)N/N=C/c1ccccc1O (stereo not drawn)
→ x	x	x	x	x	0	-1.5	-19	12	-20
Cn1c(=O)c2c(ncn2CCNC2=NCCCCC2)n(C)c1=O
→ i	10	1	-2.0	-2.1	-1	-3.0	4	9	-17
COc1ccc(CNc2oc(COc3ccccc3)nc2C#N)cc1
→ x	x	x	x	x	-4	u	-1	5	36
Cc1nonc1C(=O)N1CCCC(Nc2ccc(C(C)C)cc2)C1 (stereo not drawn)
→ i	-2	-36	-1.4	13	8	-1.3	4	-3	-1

Shown as labelled records: four of the compounds above.
Compound: Cc1ccccc1C(=O)Nc1nc(SCc2ccc(Cl)cc2)n[nH]1
  FGF22 binding: i; rRNA inh HTS: 13; rRNA inh HTS OD600: 17; rRNA inh HTS RFP: -1.2; MLL AF4-AF9 inh: -1.7; Beta cell apopt: x; RanGTP-Imp inh: 1.3; Calb FLC: -30; ALR inh: -1; T cruzi repl: -16
Compound: CCN(C(=O)CSc1cc(-c2ccccc2)c2ccc(OC)cc2n1)C1CCS(=O)(=O)C1 (stereo not drawn)
  FGF22 binding: i; rRNA inh HTS: x; rRNA inh HTS OD600: x; rRNA inh HTS RFP: x; MLL AF4-AF9 inh: 6.4; Beta cell apopt: 5; RanGTP-Imp inh: 2.9; Calb FLC: -14; ALR inh: 20; T cruzi repl: 20
Compound: COc1ccccc1N(CC(=O)NCCc1ccccc1)C(=O)CCC(=O)Nc1ccccn1
  FGF22 binding: i; rRNA inh HTS: -5; rRNA inh HTS OD600: -7; rRNA inh HTS RFP: 1.5; MLL AF4-AF9 inh: -2.7; Beta cell apopt: 1; RanGTP-Imp inh: 5.5; Calb FLC: -7; ALR inh: -4; T cruzi repl: 18
Compound: CC1CN/C(=C\C(=O)c2ccccc2)C(=O)N1 (stereo not drawn)
  FGF22 binding: x; rRNA inh HTS: x; rRNA inh HTS OD600: x; rRNA inh HTS RFP: x; MLL AF4-AF9 inh: x; Beta cell apopt: -4; RanGTP-Imp inh: 3.6; Calb FLC: u; ALR inh: -5; T cruzi repl: -18

Further records follow.
The line under a structure holds: FGF22 binding	rRNA inh HTS	rRNA inh HTS OD600	rRNA inh HTS RFP	MLL AF4-AF9 inh	Beta cell apopt	RanGTP-Imp inh	Calb FLC	ALR inh	T cruzi repl
Cc1nn(C)cc1C(C)NC(=O)c1cc(COc2c(F)cccc2F)on1 (stereo not drawn)
→ x	x	x	x	x	-13	1.4	-1	x	-6
CN(C)CCCN(C(=O)c1ccc(S(=O)(=O)N(C)Cc2ccccc2)cc1)c1nc2cc3c(cc2s1)OCO3
→ i	-53	-83	-18	16	114*	4.4	2	2	34
CCC(CO)Nc1ccc(-c2nn(C)c(=O)c3ccccc23)cc1[N+](=O)[O-] (stereo not drawn)
→ i	4	11	2.3	-0.9	-4	-2.3	11	-12	-1
COc1ccc(NC(=O)C2CCC(N3C(=O)C4CCCCC4C3=O)CC2)cc1 (stereo not drawn)
→ i	-1	-20	0.9	5.6	-2	-1.0	-1	x	-14
CCOC(=O)Cn1c(=O)n(C2CCCC2)c(=O)c2ccccc21
→ x	x	x	x	x	2	-1.5	-3	-8	4
COc1ccccc1C(=O)NC(=O)COC(=O)c1cccc(OC(F)F)c1
→ i	5	4	1.6	-1.1	-7	1.3	8	4	-5
CCOc1ccccc1NC(=O)c1cc(-c2cc(OC)c(OC)c(OC)c2)nc2ccccc12
→ x	-2	0	2.2	5.4	9	-0.3	-5	-2	36
